MT1-MMP act inh – blockers of MT1-MMP proenzyme processing, primary screen, HT1080 RFP-PRO-GFP cells, GFP/RFP fluorescence. Matrix metalloproteinase-14 (Homo sapiens), P50281. GFP/RFP ratio fluorescence, overnight; percent of plate control window, DMSO zero. GFP/RFP ratio change, % at 20 µM. 360,000 compounds, 0.061% hits. AID 651647, 2012;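 active = GFP/RFP ratio change of at least 30% with cell ATP level not reduced by more than half and red fluorescence within 50% of control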; also: strong numbers were not always called active
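Test system: HT1080 cells expressing an RFP-PRO-GFP fluorescent reporter construct / Compound dosing: single-point 20 µM compound, 1% DMSO / Schedule: cells overnight before dosing, compound overnight, 37 °C, 5% CO2 / Evaluation: GFP/RFP fluorescence ratio / Control set: DMSO and RFP-L50D-GFP cell wells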
PABP FP inh – PABP poly(A) RNA binding inhibitors, primary screen, biochemical, fluorescence polarization, uHTS | Polyadenylate-binding protein 1 (Homo sapiens), P11940 | inhibition, % at 35 µM | 290,000 compounds, 1% hits;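 active = 50% or more with normal probe brightness, or confirmed in later tests; inconclusive = above 50% with abnormal brightness, or retests that disagree; inactive = below 50% or failed in later tests; about a fifth of its hits are not listed in these tables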;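 also: calls also rest on retests at 20 µM and on dose response follow-up; controls were probe without protein and protein plus probe with vehicle; some compounds called inactive have numbers as strong as hits; many hits fall short of the cut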
Env fusion inh – inhibitors of HIV-1 Env-driven cell-cell fusion, primary screen, HeLa-JRFL effector, CEM21 target cells, luciferase; inhibition, % at 12.3 µM; 360,000 compounds, 1.1% hits;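 active = mean replicate inhibition score of at least 50 and every replicate individually at or above 50; inconclusive = only one of the two criteria met; inactive = mean below 50 and not all replicates reaching 50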;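 also: 0% = plate neutral controls and 100% = maraviroc near 300 nM; one replicate is shown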
CSC inhib – cancer stem cell viability inhibitors, primary screen, luminescence; cancer stem cell-like cells viability; 300,000 compounds, 1.1% hits; inhibition, % at 7.5 µM;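 active = mean at 75% or more and at least half the replicates too; inconclusive = mean and replicates disagree; tested in HMLE shEcad cells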;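 also: 0% = median of negative and 100% = median of positive control wells; the first replicate is given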
UUG fidelity – modulators of yeast start codon fidelity, primary screen, whole organism, S. cerevisiae, single point, plate reader; 350,000 compounds, 0.13% hits; S. cerevisiae UUG-firefly luciferase reporter, luminescence/redox ratio; activity score, % at 18.7 µM;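 active = replicate mean at a twofold rise or more, about +100% in these data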;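 also: firefly luciferase made from a UUG start codon reports start codon fidelity; reporter light over untreated wells divided by growth signal over untreated wells; some hits fall short of that in this replicate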
Rce1 inhib – yeast Rce1p protease inhibitors, primary screen, biochemical, fluorescence, cell-free homogeneous. CAAX prenyl protease 2 (Saccharomyces cerevisiae (strain ATCC 204508 / S288c)), Q03530. yeast membranes, quenched prenylated peptide cleavage fluorescence. calls only. 290,000 compounds, 0.27% hits;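 active = fall in fluorescence gain of 50% or more versus controls, with final raw signal at or below 3038400; inconclusive = same 50% fall but final raw signal above 3038400; inactive = fall in fluorescence gain under 50%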;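 also: plate controls were neutral control wells for no effect and wells lacking membranes for full effect; tested at 10 µM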
Target sequence (Q03530 whole entry, looked up): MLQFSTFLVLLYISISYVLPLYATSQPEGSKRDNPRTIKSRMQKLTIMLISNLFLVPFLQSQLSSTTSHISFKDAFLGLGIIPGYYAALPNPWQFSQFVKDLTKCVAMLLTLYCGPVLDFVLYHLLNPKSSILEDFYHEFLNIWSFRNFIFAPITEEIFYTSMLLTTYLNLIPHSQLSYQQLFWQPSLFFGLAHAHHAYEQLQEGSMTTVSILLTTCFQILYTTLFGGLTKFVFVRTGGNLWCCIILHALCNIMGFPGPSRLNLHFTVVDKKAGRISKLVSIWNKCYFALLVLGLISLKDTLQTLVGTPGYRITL
eIF4H inh – human eIF4H binding inhibitors, primary screen, translation initiation inhibitor project, biochemical, uHTS, fluorescence polarization; Eukaryotic translation initiation factor 4H (Homo sapiens), Q15056; eIF4H fluorescence polarization binding assay; inhibition, % at 35 µM; 290,000 compounds, 0.94% hits; AID 2012, 2009;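 active = 50% or more with normal probe brightness, or confirmed in later tests; inconclusive = above 50% with abnormal brightness, or retests that disagree; inactive = below 50% or failed in later tests; about a fifth of its hits are not listed in these tables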;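 also: calls also rest on retests at 20 µM and on dose response follow-up; 0% = protein and probe with vehicle and 100% = probe without protein; strong numbers were not always called active; many hits fall short of the cut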
eIF4H inh retest – further read-out of eIF4H inh, marked with its call; inhibition, %; compound at 20 µM; confirmation average;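 mean of two retest wells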
PABP FP inh retest – further read-out of PABP FP inh, marked with its call; inhibition, %; compound at 20 µM; confirmation repeats;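 mean of two retest wells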
MT1-MMP act inh RFP – further read-out of MT1-MMP act inh, marked with its call; RFP signal change, %; measured here: RFP expression control read;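 0 = vehicle wells; hits needed this value within 50% of zero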
* marks the source's active call; other numbers are inactive results; i = inactive; ? = inconclusive; . = not tested or not shown.

SMILES	MT1-MMP act inh	MT1-MMP act inh RFP	PABP FP inh	Env fusion inh	CSC inhib	UUG fidelity	Rce1 inhib	eIF4H inh	others
COc1ccc(OC)c(N2Cc3cc(C)c(C)cc3C2)c1	-14	4	118	.	7	-15	i	105*	eIF4H inh retest=54*;PABP FP inh retest=41
Cc1c(C(=O)N2CCN(c3ccc(C(F)(F)F)cn3)CC2)oc2ccccc12	-1	5	-6	.	66	11	i	-7
O=C(N[C@H]1CCC(=O)N([C@H](CSc2ccccc2)Cc2ccccc2)CC1)OCc1ccccc1	-5	-7	10	4	17	-8	i	11
CC(=O)Nc1ccccc1NS(=O)(=O)c1cccc([N+](=O)[O-])c1	1	2	-9	3	-4	.	i	-2
COc1ccc(CN2CC[C@H]3C=CC[C@@H](C(=O)Nc4ccc(Cl)c(C(F)(F)F)c4)[C@H]3C2=O)cc1OC	5	-10	.	49	-7	-23	i	.
CCn1c(SC(C)C(=O)NC2CCCC2)nc2cc(S(N)(=O)=O)ccc21 (centres undefined)	1	4	.	5	.	-36	.	.
Cc1ccc(C(=O)N[C@H](C(=O)OCC(=O)Nc2cccc(S(N)(=O)=O)c2)C(C)C)cc1	11	9	-9	2	-9	4	i	-7
Cc1ccc(SCc2cn3c(C)csc3n2)cc1	2	3	-1	.	-6	-63	i	1
CCN(CC)C(=O)C(=O)Nc1ccc(F)c(Cl)c1	-1	9	3	-20	-10	.	i	6
CC(Oc1ccccc1F)C(=O)NNC(=O)c1cc2ccccc2o1 (centres undefined)	-2	1	32	4	4	.	i	1
COc1cc2c(cc1OC)C(c1cc(Br)ccc1F)N(C(=O)CCl)CC2 (centres undefined)	3	-5	-3	-78	42	-7	i	-9
Cc1nnc(SCC(=O)NCc2ccc(F)cc2)[nH]c1=O	0	3	-1	-1	-3	.	i	-1
COC(=O)C1=C(CSc2nc3ccccc3s2)NC(=O)NC1c1ccc(F)cc1 (centres undefined)	-5	-4	1	4	29	.	.	-3
CCN/C=C(\C#N)S(=O)(=O)c1ccc(Br)cc1	3	-3	4	-4	-7	.	i	3
CN(CCO)c1nc(N)c2c(N)nc3c(c2c1C#N)CC(=O)N3C1CCCC1	.	.	77*	.	-14	.	i	?
NC(=O)c1ccc(-c2ncc(-c3ccccc3)o2)cc1	0	-5	1	-43	.	.	i	10
Cc1ccc(NS(=O)(=O)c2ccc(C(=O)NCC(c3ccco3)N(C)C)cc2)cc1 (centres undefined)	-1	-1	-11	-5	.	-8	i	-6
CCN(CC)CCC12CC(C)OC1=Nc1ccccc1NC2=O (centres undefined)	4	5	.	-22	.	-1	.	.
O=c1[nH]c(C2CCCN(S(=O)(=O)c3ccccc3)C2)nc2c1nnn2Cc1ccc(OC(F)(F)F)cc1 (centres undefined)	2	-5	-2	0	-3	0	i	-6
O=C(Cc1ccc(Br)cc1)NC1CCSC1=O (centres undefined)	-1	2	-9	4	-1	.	i	-2
O=S(=O)(c1ccc(N2CCOCC2)nc1)N(Cc1ccccn1)Cc1ccccn1	0	-1	-7	1	-5	-14	i	3
Cc1cc(-c2onc(C)c2C(=O)Nc2ccc(C(F)(F)F)cc2)no1	-2	-3	3	-5	-4	-7	i	-8
O=C(CSc1ncn[nH]1)CSc1ncn[nH]1	4	4	1	1	7	-12	i	6
COc1ccc(-c2cc(-c3nnc(COC(=O)c4ccc(O)cc4)o3)c3ccccc3n2)cc1OC	-9	-7	10	10	4	7	i	-7
CCc1noc(C)c1C(=O)N(CC(C)C)c1c(N)n(Cc2ccccc2)c(=O)[nH]c1=O	-1	2	.	0	.	-19	.	.
Cc1cnc(C(=O)Nc2ccccc2C(=O)N2CCOCC2)cn1	2	7	-10	-20	-4	-11	i	-11
COc1ccc(NS(=O)(=O)c2ccc(N3CCCCC3)c(N)c2)cc1	10	-25	.	.	21	-8	.	.
O=C(NCC1CCCO1)c1ccc(NC(=O)C2CC=CCC2C(=O)O)cc1 (centres undefined)	0	2	-4	.	1	-4	.	4
O=C(O)CCCC(=O)Nc1ccccc1SCCS(=O)(=O)c1ccc(Cl)cc1	0	3	0	8	5	6	i	3
CC1=C(C(=O)N(C)C)CC(CC(=O)NCc2cccs2)C(=O)N1Cc1ccc(F)cc1 (centres undefined)	0	4	.	-18	.	46	.	.
Cc1cc(Cl)ccc1OCC(=O)NCCOc1nc(N2CCCCC2)nc(N2CCOCC2)n1	-8	-7	-4	11	.	17	i	-1
COc1cc(C(=O)NCc2nnc(SCC(=O)Nc3cc(C)on3)o2)cc(OC)c1OC	-5	1	14	5	-4	-17	i	-4
CC(C)(CNC(=O)c1ccc(S(=O)(=O)Nc2cccc(C(F)(F)F)c2)cc1)N1CCOCC1	-1	-9	.	.	64	0	.	.
Cc1nn(-c2ncc(C(F)(F)F)cc2Cl)c(=O)n1-c1cccc(F)c1	0	-10	-11	2	-2	3	i	-4
Cc1ccc(NS(=O)(=O)c2ccccc2)c(NS(=O)(=O)c2ccccc2)c1	-5	-1	.	3	.	1	.	.
S=C(Nc1cccc(Cl)c1)Nc1ccccc1Oc1ccccc1	1	0	11	.	.	-37	i	-8
CC(=O)Nc1nc(C=C(Cl)Cl)cs1	2	-2	33	-64	.	-22	.	16
COc1ccc(O[C@H]2C=C[C@@H](c3ccccc3)O[C@@H]2COC(=O)CC/C(C)=N/OC[C@@H](O)COCc2ccco2)cc1	.	.	4	.	-10	.	i	-4
CCOc1ccccc1C(=O)NCC(=O)NNC(=O)c1cccs1	0	0	.	.	-9	-12	.	.
CCc1ccc(N(C(=O)c2csnn2)C(C(=O)NC(C)(C)CC)c2cccnc2)cc1 (centres undefined)	1	2	2	15	4	.	i	-1
Cc1cc2nc(-c3ccc(=O)[nH]c3)n(C)c2cc1C	5	6	5	-17	-6	5	i	29
COc1ccccc1NS(=O)(=O)c1cc(C(=O)NCC(C)(C)N2CCOCC2)ccc1C	0	0	.	.	-5	-8	i	.
CNc1cccc(-c2cc(OC)c(OC)c(OC)c2)n1	6	9	.	-10	.	-19	.	.
O=S(=O)(c1ccc(N2CCN(S(=O)(=O)c3ccccc3)CC2)nc1)N1CCCC1	-2	-3	11	-1	4	-7	i	-1
CC(C)(C)c1nnc2sc(SCC(=O)NCc3ccco3)nn2c1=O	-6	1	.	.	-15	-10	.	.
O=C(CN1CCN(C(=O)C2COc3ccccc3O2)CC1)Nc1ccc(F)cc1 (centres undefined)	0	-3	-2	15	7	-7	i	7
COc1ccc(C(=O)NCCSc2ccccc2C)cc1	-1	-3	1	-79	-10	-2	i	3
Cc1ccc(-c2nc3ccc(Cl)cn3c2Cc2cccc(F)c2)cc1	-6	-3	.	-50	.	-15	.	.
Nc1ncnc2c1ncn2[C@@H]1O[C@H](CO)C[C@H]1O	1	9	.	12	20	-28	i	.
O=CN1CCN(C(C(=O)NC2CCCC2)c2cc3c(cc2[N+](=O)[O-])OCO3)CC1 (centres undefined)	-4	2	3	10	-17	.	i	2

Already shown: entries from further up.
SMILES	MT1-MMP act inh	MT1-MMP act inh RFP	PABP FP inh	Env fusion inh	CSC inhib	UUG fidelity	Rce1 inhib	eIF4H inh	others
O=C(N[C@H]1CCC(=O)N([C@H](CSc2ccccc2)Cc2ccccc2)CC1)OCc1ccccc1	-5	-7	10	4	17	-8	i	11
CC(=O)Nc1ccccc1NS(=O)(=O)c1cccc([N+](=O)[O-])c1	1	2	-9	3	-4	.	i	-2

The results go on.
SMILES	MT1-MMP act inh	MT1-MMP act inh RFP	PABP FP inh	Env fusion inh	CSC inhib	UUG fidelity	Rce1 inhib	eIF4H inh	others
CCCOC1CCCN(C(=O)c2ccc(OC3CCN(C(=O)CCOC)CC3)cc2)C1 (centres undefined)	2	-3	20	3	-1	12	i	12
COc1ccc(-c2csc(N(CC3CCCO3)C(=O)c3ccco3)n2)cc1 (centres undefined)	2	-7	10	40	-1	-12	i	0
COc1ccc(Cl)cc1NS(=O)(=O)c1cccc(C(=O)NC2CC2)c1	0	0	.	5	3	-6	.	.
CN(CC(=O)NCCc1ccc(Cl)cc1)S(=O)(=O)c1cccs1	-2	2	2	5	4	3	.	5
COc1cc(OC)c(OC)cc1/C=N/N(C)c1ccccc1	-3	-4	5	.	24	2	i	8
COC(=O)N1C(=O)[C@](c2ccccc2)(C2CCCCC2)N1C(=O)OC	4	3	-13	27	16	-5	i	-4
Cc1cc(C)n(-c2nnc(N3CCN(c4ccccc4)CC3)nn2)n1	13	1	3	-10	12	.	i	7
S=C1N[C@H]2CCCC[C@@H]2N1	6	2	-7	-1	-7	-53	i	-3
Cc1ccc(OCCNC(=O)c2ccc(COc3ccccc3)o2)cc1	-3	-1	.	-5	9	.	i	.
O=C(NCCCc1ccccc1)c1ccccc1	4	11	-7	.	6	-1	i	-8
O=C(CN1CCCCC1)N1N=C(c2cccs2)CC1c1cccs1 (centres undefined)	-1	1	0	-3	-12	-4	i	-10
CC1=C(/C=C/C(C)=N\NC(=O)c2ccncc2)C(C)(C)CCC1	1	2	-4	15	-9	.	i	0
CCOC(=O)C1=C(C)NC(C)=C(C(=O)OCC)C1c1sccc1C	-8	-5	-4	18	7	-7	i	-2
COc1ccc(NC(=O)C2CCN(S(=O)(=O)c3cccc4cccnc34)CC2)cc1OC	0	4	-2	-6	-1	1	i	-1
CCOC(=O)N1CCN(S(=O)(=O)N2CCCC(C(=O)NCc3ccc(C)cc3)C2)CC1 (centres undefined)	-6	-2	.	-26	.	-3	.	.
Cc1nc2ccc(NS(=O)(=O)c3ccccc3F)cc2s1	-8	-20	.	.	11	-17	.	.
COC(=O)Nc1ccc(S(=O)(=O)N2CCCC(C(=O)NC3CCS(=O)(=O)C3)C2)cc1 (centres undefined)	7	4	21	2	-9	-6	i	2
O=C(NCCCN1CCCC1=O)Nc1ccccc1F	0	1	1	-9	-2	-14	i	-1
Cc1ccc(CNC(=O)CSCc2ccccc2F)cc1	1	5	19	10	.	.	i	-4
CC(C)CCOc1ccc(C(=O)NN2C(=O)NC3(CCCCC3)C2=O)cc1	0	0	.	5	.	1	i	.
Cc1cc(C)n(-c2ccc(C(=O)N3CCN(S(=O)(=O)c4ccc(C(C)C)cc4)CC3)cc2)n1	6	-15	.	20	.	-1	.	.
COc1ccc(OC)c(S(=O)(=O)N2CCC(C(=O)NC3CC3)CC2)c1	2	0	2	-10	-10	-8	i	-6
O=C(c1ccc(F)cc1)N1CCN(c2cc(N3CCCCC3)c(F)cc2[N+](=O)[O-])CC1	0	-13	1	-14	.	.	i	0
CCCOc1cc(CN2CCCCC2)cc(C(C)=O)c1	-1	4	3	.	-6	4	i	-1
Clc1ccc(-n2cccc2CN2CCc3c([nH]c4ccccc34)C2c2ccccn2)nc1 (centres undefined)	6	10	30	42	5	.	i	31
COc1cccc(Nc2nc(C(N)C3CCCCC3)cs2)n1 (centres undefined)	-8	-7	.	-13	.	-30	.	.
CC1(c2ccc(OC(F)F)cc2)NC(=O)N(CC(=O)Nc2ccc(N3CCCCC3)cc2)C1=O (centres undefined)	10	-6	.	-15	-5	.	i	.
Cc1cccc(NC(=O)CCNC(=O)c2ccco2)c1	-3	-3	0	5	-2	.	i	-4

Screens from PubChem.
